Cruzain inh Det – blocks cruzain activity in presence of Triton detergent; P25779; purified cruzain, Z-FR-AMC fluorescence, 0.01% Triton; Potency, µM, inactives show max response, negative = inhibition, actives largely listed as inhibitors; 0.43% of 200,000 active;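 also: plate controls were neutral wells for no effect and buffer without enzyme for full effect; nearly all actives have a fitted effect of over 40% in size; top concentration of the series not given in the record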
Target sequence (P25779 123-467 limits assumed): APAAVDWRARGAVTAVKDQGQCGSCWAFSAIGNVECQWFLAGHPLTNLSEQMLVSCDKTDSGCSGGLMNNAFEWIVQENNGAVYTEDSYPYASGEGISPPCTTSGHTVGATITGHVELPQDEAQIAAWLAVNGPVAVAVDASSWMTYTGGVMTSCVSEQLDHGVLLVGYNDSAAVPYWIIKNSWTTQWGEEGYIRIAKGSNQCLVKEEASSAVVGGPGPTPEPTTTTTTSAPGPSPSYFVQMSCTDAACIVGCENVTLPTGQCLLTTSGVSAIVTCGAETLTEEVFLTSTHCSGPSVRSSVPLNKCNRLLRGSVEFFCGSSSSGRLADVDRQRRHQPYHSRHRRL
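In this qHTS format, compounds are incubated with 1.5 nM cruzain for 15 min at room temperature before 2 uM Z-FR-AMC is added. Release of AMC is followed at 360/450 nm, and progress is taken as the 60 s fluorescence difference.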
RE007 growth inh – less growth of the S. pombe RE007 Vpr strain | S. pombe RE007 Vpr strain, BacTiter-Glo ATP luminescence, 24 h; control for the full effect not named in the record | Potency, µM (titrated, usually from 92.2 µM), inactives show at the top dose activity change, negative = less growth | 0.21% of 360,000 active | AID 651644; active = well fitted falling curve with a large enough effect; inconclusive = small, poorly fitted or top-dose-only effect; inactive = no such curve, though single readings can be large or run the other way;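 also: % is scaled to controls: 0 for no effect and ±100 for the full control effect; nearly all actives have a fitted effect of over 50% in size; the assay follows cell death caused by Vpr and the record does not say whether a fall means rescue or toxicity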
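Fission yeast strain RE007, carrying one chromosomally integrated HIV-1 vpr copy, was seeded at OD 0.01 in PMG+AL medium with 23 nL pinned compound. After 24 h at 30 °C and 99% humidity, viability was read by BacTiter-Glo luminescence.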
StopGo reporter – FMDV 2A StopGo reporter, luciferase signal; human cells with a luciferase reporter of 2A StopGo recoding; control for the full effect not named in the record; Potency, µM (titrated, usually from 57.9 µM), for the others: at the highest dose signal change, negative = less light; 1.2% of 410,000 active; active = well fitted falling curve with a large enough effect; inconclusive = small, poorly fitted or top-dose-only effect; inactive = no such curve, though single readings can be large or run the other way; tested in HEK293T cells; also: % is scaled to controls: 0 for no effect and ±100 for the full control effect; nearly all actives have a fitted effect of over 45% in size; luciferase light after 4 h
Cruzain noTriton – cruzain (T. cruzi) inhibition without detergent. P25779. purified cruzain, Z-FR-AMC fluorescence, no detergent. Potency, µM, for the others: max response, negative = inhibition, usual class: inhibitors. 2.3% of 200,000 active. AID 1476;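 also: plate controls were enzyme without inhibitor for no effect and buffer without enzyme for full effect; nearly all actives have a fitted effect of over 40% in size; top concentration of the series not given in the record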
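Detergent-free condition (0.00005% Triton X-100) in acetate buffer pH 5.5 with DTT. 1.5 nM enzyme and compound were pre-mixed 15 min, then 2 uM Z-FR-AMC substrate added; reaction progress from fluorescence change between first and third reads (60 s).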
SARS PLP yeast – inhibitors of SARS-CoV papain-like protease in yeast. AID 485353. 0.19% of 330,000 active. Potency, µM (titrated, usually from 32.9 µM), inactives show at the top dose activity, positive = growth rescue. S. cerevisiae expressing SARS-CoV PLpro, growth rescue; control for the full effect not named in the record; active means well fitted rising curve with a large enough effect; inconclusive means small, poorly fitted or top-dose-only effect; inactive means no such curve, though single readings can be large or run the other way; also: 0% is about no effect; nearly all actives have a fitted effect of over 55% in size; growth read by luminescence after 48 h
Lassa entry inh – blocks Lassa virus binding to or entry into cells. Lassa virus pseudotype entry inhibition, cell reporter; control for the full effect not named in the record. 1.2% of 300,000 active. AID 540256. Potency, µM (highest dose often 37.9 µM), for inactives: at the top dose activity change, negative = inhibition, most hits filed as inhibitors; active means well fitted inhibition curve with a large enough effect; inconclusive means small, poorly fitted or top-dose-only effect, or effect the other way; inactive means flat fitted curve, though single readings scatter; tested in HEK293 cells; also: % is scaled to controls: 0 for no effect and ±100 for the full control effect; nearly all actives have a fitted effect of over 50% in size; luciferase read-out
NS1 inh – inhibitors of influenza NS1 protein function; Potency, µM (doses to about 46.1 µM), for the others: at the top dose activity, positive = more growth; S. cerevisiae slowed by influenza A NS1, growth recovery by OD600; AID 2326; 0.4% of 270,000 active; active means well fitted rising curve with a large enough effect; inconclusive means small, poorly fitted or top-dose-only effect; inactive means no such curve, though single readings can be large or run the other way; also: nearly all actives have a fitted effect of over 50% in size
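Growth recovery, yeast-based: influenza A NS1 expressed in S. cerevisiae causes slow growth, and suppressors are detected by OD600. The parent strain without NS1 is used as positive control.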
MARV entry inh – inhibitors of Marburg virus binding or cell entry | 1.8% of 300,000 active | Marburg virus pseudotyped entry inhibition, cell reporter; control for the full effect not named in the record; about a third of the inactives were read at about 46 µM | Potency, µM (top dose mostly 37.8 µM), for the others: at the highest dose activity change, negative = inhibition, actives largely listed as inhibitors; active = well fitted inhibition curve with a large enough effect; inconclusive = small, poorly fitted or top-dose-only effect, or effect the other way; inactive = flat fitted curve, though single readings scatter; tested in HEK293 cells; about a fifth of its hits are not listed in these tables; also: % is scaled to controls: 0 for no effect and ±100 for the full control effect; luciferase read-out
* hit, by the source's call; ? = inconclusive; / = no result given; & = joins results of further samples; [ ] = another dose, or the depositor's remark. Unless noted, calls follow the shape of the dose curve; as a rule, active = well fitted curve in the direction sought with a large enough effect; inconclusive = small, poorly fitted or top-dose-only effect, or another doubt; inactive = no such curve, though single readings can be large; an effect the other way counts as inactive or inconclusive. Potency is read from the fitted curve at half-maximal effect.

SMILES	Cruzain inh Det	RE007 growth inh	StopGo reporter	Cruzain noTriton	SARS PLP yeast	Lassa entry inh	NS1 inh	MARV entry inh
C/C(CCN1CCc2nc(-c3ccccc3)c(-c3ccccc3)cc2C1)=N\O[C@@H](C)c1cn([C@H](CO)Cc2ccccc2)nn1	-1.2%	/	/	?	4.0%	?	-24.5%	?
c1ccc2c(c1)nnn2-c1ncnc2sc3c(c12)CCCC3	3.9%	-8.4%	-25.2%	4.3%	7.2%	-10.5%[14.3 µM]	-57.1%	12.3%
CC(C)(C)c1ccc(OCCCNCc2ccccc2)cc1	-1.1%	0.4%	0.1%	-1.1%	-23.6%	?	-2.6%	?
COc1ccc(CNC(=O)c2ccc(C)o2)cc1	-0.4%	24.2%	28.6%	-2.4%	-2.4%	12.5%	-3.6%	7.2%
CC(C)(C)NC(=O)NC(=O)CSc1ncn[nH]1	/	-3.7%	0.7%	/	-3.9%	14.5%	-2.3%	24.6%[14.2 µM]
COc1ccc(Cn2c(=O)[nH]c3cc(C(=O)N4CCN(c5ccccc5)CC4)ccc3c2=O)cc1	2.3%	0.3%	-9.9%&1.0%	0.5%	-5.7%	-5.9%	3.7%	11.9%&17.3%[46.1 µM]
C=CCOC(=O)/C(=C\c1ccccc1)NC(=O)c1ccc(C)cc1	/	8.6%	69.5%[activator]	/	-0.4%	/	5.1%	/
Cc1cc(C(C)c2ccccc2)c(O)c(CN2CCOCC2)c1C (stereo not given)	-7.3%	6.4%	-21.8%	21.8%	-27.3%	-10.5%	-41.0%	-22.1%
O=P(N[C@@H](c1ccccc1)[C@@H]1C[C@H]1CO)(c1ccccc1)c1ccccc1	2.3%&4.8%	8.2%	2.0%	4.0%&4.5%	4.6%	0.8%	-23.3%	13.9%
CC(C)(C)NC(=O)COC(=O)c1cc(S(=O)(=O)N2CCCCC2)ccc1N1CCOCC1	-3.3%	17.6%	2.3%	15.4%	-3.8%	15.8%	-7.0%	-7.8%
Cc1cc(C)nc(SCC(=O)n2c3c(c4ccccc42)CCCC3)n1	-8.2%	2.1%	-20.3%	3.6%	-0.6%	0.8%	-4.0%	7.3%
O/C(=C\c1ccc2ccccc2n1)c1ccc(O)cc1O	/	-7.9%	-85.6%	/	-1.8%	?	/	7.08µM*
O=c1c(-c2nn[nH]n2)coc2ccc(Cl)cc12	/	-4.8%	-10.2%	/	-0.5%	-1.9%	-2.5%	-0.3%
CCCn1c2ccccc2c2cnn(CC(=O)NCCc3ccccc3)c(=O)c21	1.8%	/	-21.1%	-3.8%	/	-25.7%[46.1 µM]	/	/
O=C(CN1CCN(C(=O)C2CCCO2)CC1)Nc1ccc(Br)cc1 (stereo not given)	/	3.4%	-5.5%	/	0.8%	/	-2.3%	/
O=C1C2(Cl)C3(Cl)C4(Cl)C(Cl)(Cl)C5(Cl)C3(Cl)C1(Cl)C5(Cl)C24Cl (stereo not given)	-9.8%&-7.7%	-17.0%	0.0%	-8.3%&-6.5%	1.5%	/	/	/
O=C(N/N=C/c1c(O)n(CCc2ccccc2)c(=O)[nH]c1=O)c1ccccc1O	/	-12.9%	3.2%	/	2.24µM*	/	-7.4%	-2.1%
Cc1ccc(-c2cc(=O)[nH]c(NCc3ccccc3)n2)cc1	/	8.7%	20.5%	/	/	?	/	?
CCOc1ccc2cc(C(=O)c3ccccc3)c(=O)oc2c1	-4.4%	-16.5%	68.7%[activator]	6.1%	3.6%	?	3.1%	?
Cc1ccc(C(=O)N2CCN(c3ccc(NC(=O)c4cccnc4Cl)cc3)CC2)cc1	/	5.0%	-10.2%	/	-3.1%	29.7%[46.1 µM]	-0.8%	5.3%[46.1 µM]
COc1ccc(CCNC(=O)CCCn2c(=O)c3ccccc3n(Cc3ccccc3)c2=O)cc1OC	-5.5%	/	0.0%	?	/	?	/	-16.1%[46.1 µM]
COc1ccc2ccccc2c1/C=N/NC(=S)NCCN1CCOCC1	/	-5.2%	-11.9%	/	-0.4%	?	/	?
COc1ccc(N2CCN(C(=O)CSc3nc4c(c(=O)n(C)c(=O)n4C)n3C(C)C)CC2)cc1	-0.2%	-3.8%	/	?	1.0%	-5.8%	-1.5%	-19.9%
CN(C)S(=O)(=O)c1ccc(C(=O)/C=C/c2cccnc2)cc1	/	-5.3%	?	/	17.5%	22.8%	13.3%	-6.4%[46.1 µM]
COc1cc(C(=O)Nc2ccc(NC(=O)c3ccccc3Cl)nc2)cc(OC)c1OC	/	-5.9%	0.0%	/	0.3%	?	-1.5%	?
CCCn1nc(C(=O)NCCc2ccc(S(N)(=O)=O)cc2)c2ccccc2c1=O	2.4%	-10.1%	-11.6%	-12.6%	-5.8%	4.7%	?	-7.3%[46.1 µM]
CN(C)C(CNC(=O)c1cccc(S(=O)(=O)NCc2ccccc2)c1)c1ccco1 (stereo not given)	/	-10.3%	-2.1%	/	4.4%	-20.6%	/	-5.9%[46.1 µM]
COc1ccc(NC(=O)CN2CCN(c3ccc(Cl)cc3)CC2)c(OC)c1	-1.4%	-8.2%	-21.9%	20.2%	4.4%	-0.2%	-51.6%	7.7%[46.1 µM]
CC1CCCCC1NC(=O)COC(=O)COc1ccccc1F (stereo not given)	/	6.3%	-10.9%	/	-12.4%	-2.1%	/	-2.3%
COc1ccc(-c2[nH]c(-c3cccc(OC)c3)nc2SCC(=O)Nc2ccc3c(c2)OCO3)cc1	-3.8%	/	4.7%	?	/	7.94µM*	/	-13.6%[46.1 µM]
CCCSc1ncc(Cl)c(C(=O)Nc2ccc(S(=O)(=O)N3CC(C)OC(C)C3)cc2)n1 (stereo not given)	2.0%	1.7%	-5.6%	11.3%	18.7%	-25.5%	?	?
NNC(=O)CN1C(=O)CN=C(c2ccccc2)c2cc(Br)ccc21	/	-16.5%	-6.2%	/	-1.4%	-3.1%	2.0%	-13.0%[46.1 µM]
N#CC1(NC(=O)CN2CCN(S(=O)(=O)c3ccccc3F)CC2)CCCC1	/	-4.5%	-8.3%	/	-0.3%	/	-0.7%	/
CNC(=O)NC(=O)COc1c(F)c(F)cc(F)c1F	/	13.2%	-0.6%	/	-2.5%	20.9%	/	28.2%[46.1 µM]
Clc1cc2nc(-c3cccnc3Cl)[nH]c2cc1Cl	/	12.9%	20.5%	/	0.6%	-3.7%[46.1 µM]	-0.1%	-7.5%[46.1 µM]
Cc1ccc(CNC(=O)C2(S(=O)(=O)c3ccccc3)CC=CC2)cc1	/	-5.0%	50.0%[activator]	/	-1.1%	/	-10.2%	/
CCn1c(SCC(=O)Nc2c(C#N)cnn2-c2ccccc2)nnc1-c1cccs1	/	-19.6%	-1.3%	/	0.5%	2.3%	-1.9%	-19.0%
Cc1cccc(N2CCN(C(=O)CCS(=O)(=O)c3ccc(Br)cc3)CC2C)c1 (stereo not given)	/	4.4%	?	/	0.1%	-23.2%	/	4.8%[46.1 µM]
NS(=O)(=O)c1ccc(CCNC(=O)C2CCN(C(=O)Nc3ccccc3)CC2)cc1	/	-9.9%	-9.3%	/	-2.8%	14.8%	/	?
Cc1ccc2oc(=O)c3cnn(CC(=O)N(CCCN4CCOCC4)Cc4ccco4)c3c2c1	-4.6%	-7.5%	0.0%	-5.0%	-2.7%	/	-0.4%	/
COc1ccc(Cl)cc1Nc1ncnc2c1c(-c1ccccc1)cn2-c1ccccc1	4.3%	/	-6.2%	11.8%	/	8.3%[46.1 µM]	/	/
Cc1ccc(-n2ncc3c(NCCc4ccccc4)ncnc32)cc1Cl	0.0%	/	18.0%	2.0%	/	-2.8%[46.1 µM]	/	/
COc1ccc(OC)c(NC(=O)CCNS(=O)(=O)c2cc(Br)cnc2N)c1	/	-7.0%	5.9%	/	4.3%	/	6.4%	/
Cc1cc(C(=O)OCC(=O)Nc2ccccc2Br)c(C)o1	/	13.3%	1.4%	/	-1.7%	-2.6%[46.1 µM]	/	5.0%[46.1 µM]
CCOC(=O)C1CCN(c2cc3c(cc2NC(=O)c2ccccc2Br)n(C)c(=O)n3C)CC1	/	-3.8%	-21.0%	/	-3.0%	/	-8.1%	/
CCC1CCCCN1S(=O)(=O)c1ccc(C(=O)N(CCCN(C)C)c2nc3cc4c(cc3s2)OCO4)cc1 (stereo not given)	/	3.0%	-13.7%	/	?	?	2.8%	?
Cc1nn(C(C)C(=O)NCCCN2CCCCCC2)c(=O)c2c1sc1ccccc12 (stereo not given)	/	-7.9%	-3.2%	/	?	17.4%[46.1 µM]	8.3%	-27.3%[46.1 µM]
Cc1ccc(OCCSc2nc(N)cc(N)n2)cc1	/	-12.5%	28.7%	/	-11.4%	?	/	-2.1%[46.1 µM]

A different layout for part of the listing above.
| Molecule | Cruzain inh Det | RE007 growth inh | StopGo reporter | Cruzain noTriton | SARS PLP yeast | Lassa entry inh | NS1 inh | MARV entry inh |
| --- | --- | --- | --- | --- | --- | --- | --- | --- |
| CCn1c(SCC(=O)Nc2c(C#N)cnn2-c2ccccc2)nnc1-c1cccs1 | / | -19.6% | -1.3% | / | 0.5% | 2.3% | -1.9% | -19.0% |
| Cc1cccc(N2CCN(C(=O)CCS(=O)(=O)c3ccc(Br)cc3)CC2C)c1 (stereo not given) | / | 4.4% | ? | / | 0.1% | -23.2% | / | 4.8%[46.1 µM] |
| NS(=O)(=O)c1ccc(CCNC(=O)C2CCN(C(=O)Nc3ccccc3)CC2)cc1 | / | -9.9% | -9.3% | / | -2.8% | 14.8% | / | ? |
| Cc1ccc2oc(=O)c3cnn(CC(=O)N(CCCN4CCOCC4)Cc4ccco4)c3c2c1 | -4.6% | -7.5% | 0.0% | -5.0% | -2.7% | / | -0.4% | / |

Quoted at random: 2 entries already listed.
SMILES	Cruzain inh Det	RE007 growth inh	StopGo reporter	Cruzain noTriton	SARS PLP yeast	Lassa entry inh	NS1 inh	MARV entry inh
Cc1ccc(OCCSc2nc(N)cc(N)n2)cc1	/	-12.5%	28.7%	/	-11.4%	?	/	-2.1%[46.1 µM]
Clc1cc2nc(-c3cccnc3Cl)[nH]c2cc1Cl	/	12.9%	20.5%	/	0.6%	-3.7%[46.1 µM]	-0.1%	-7.5%[46.1 µM]

Compound activity (PubChem BioAssay)
